# gsp antag = antagonizes gsp, the McCune-Albright syndrome mutation; gsp-mutant cells, cAMP HTRF, 30 min; control for the full effect not named in the record; Potency, µM (top dose mostly 76.9 µM), for the others: top-dose activity change, negative = inhibition, most hits filed as inhibitors; 340,000 compounds, 0.4% hits; AID 624288; active = falling curve of any shape with a large fitted effect; inconclusive = falling curve, mostly with a smaller effect; inactive = flat or rising curve; cell line not stated here;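 also: intracellular cAMP measured with PDE inhibitor Ro 20-1724 present during compound exposure; potency is read from the fitted curve at half-maximal effect; % is scaled to controls: 0 for no effect and ±100 for the full control effect; nearly all actives have a fitted effect of over 65% in size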
#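 Measurement of cellular cAMP by homogeneous time-resolved fluorescence following a 30 min compound exposure at 37C. The PDE inhibitor […] was present throughout; the assay buffer was DPBS with 0.05% BSA and 0.005% Tween 20.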
# CtBP-E1A inh = inhibitors of CtBP/E1A interaction; AlphaScreen GST-E1A/His-CtBP binding, 1536-well; active compounds read low; control for the full effect not named in the record; activity change, % (no concentration beside the values); 340,000 compounds, 0.49% hits; in the data active means activity change below about -65%; inconclusive means about -30% to -65%; inactive means above about -30%; also: % is scaled to controls: 0 for no effect and ±100 for the full control effect
#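 GST-E1A and His-tagged CtBP (125 nM each as 5X stock) were preincubated with pin-transferred compound for 2 h at 37 °C in the dark, then glutathione donor and nickel acceptor beads were added for 1 h before AlphaScreen reading.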
# D2 ag = agonists of human D2 dopamine receptor (beta-arrestin); DiscoveRx PathHunter D2 beta-arrestin, luminescence, 90 min; 100% = 57 uM dopamine signal; activation, % (no concentration beside the values); 360,000 compounds, 0.084% hits; in the data active = activation above about 40%; inconclusive = about 15% to 40%; inactive = below about 15%; also: compound concentration not given in the record; the text of the record calls up to 30% inactive
# Target sequence (P14416 whole entry, looked up): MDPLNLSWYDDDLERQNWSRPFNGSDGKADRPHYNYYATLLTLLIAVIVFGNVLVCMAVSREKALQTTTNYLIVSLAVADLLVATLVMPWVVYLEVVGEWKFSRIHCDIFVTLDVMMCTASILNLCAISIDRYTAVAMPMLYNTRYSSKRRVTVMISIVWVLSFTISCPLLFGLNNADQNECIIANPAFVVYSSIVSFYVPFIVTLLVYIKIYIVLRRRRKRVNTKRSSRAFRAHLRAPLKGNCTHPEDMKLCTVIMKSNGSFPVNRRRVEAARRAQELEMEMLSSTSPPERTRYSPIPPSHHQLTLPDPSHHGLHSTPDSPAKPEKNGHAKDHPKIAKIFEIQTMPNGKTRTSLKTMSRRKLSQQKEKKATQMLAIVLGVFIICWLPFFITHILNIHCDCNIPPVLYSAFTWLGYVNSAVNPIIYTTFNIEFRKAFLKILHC
#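 DiscoveRx PathHunter D2 beta-arrestin cells (2,100/well) attached overnight, then compound-stimulated 90 min at 37 C in HBSS/10 mM HEPES/0.1% Tween-20 buffer; beta-galactosidase complementation read by luminescence after 1 h at ambient temperature. Dopamine 57 uM final (EC100) as control.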
# D2 potentiator = human D2 receptor positive allosteric modulation; P14416; DiscoveRx D2 beta-arrestin cells, luminescence, 90 min; 100% = 57 uM dopamine signal; potentiation, % (test concentration not listed); 360,000 compounds, 0.23% hits; active = potentiation of 50% or more; inconclusive = 30% to 50%; inactive = 30% or less;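 also: compound concentration not given in the record; tested on top of an EC20 dose of dopamine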
#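 PathHunter beta-arrestin assay in DiscoveRx D2 cells. Compounds were added with an EC20 of dopamine (50 nM final) for 90 min at 37 deg C. Luminescence was read 1 h after detection reagent, with 57 uM dopamine as the EC100 control.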
# Six1-Eya2 inh = Six1/Eya2 interaction inhibition | AlphaScreen GST-Six1/His-Eya2 binding, biochemical; active compounds read low; control for the full effect not named in the record | activity change, % (concentration not given with the values) | 360,000 compounds, 0.56% hits | AID 651725; in the data active = activity change below about -65%; inconclusive = about -30% to -65%; inactive = above about -30%; also: % is scaled to controls: 0 for no effect and ±100 for the full control effect
#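 Compounds are tested against tagged Six1 and Eya2 proteins bridged by glutathione donor and nickel acceptor beads; after a one-hour incubation at 37 °C without light, AlphaScreen emission is recorded.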
# gsp agonist = gsp mutant agonism | Potency, µM (titrated, usually from 76.9 µM), for the others: top-dose activation (cAMP increase), usual class: activators | 340,000 compounds, 0.13% hits | gsp mutant cells, cAMP HTRF, 30 min; control for the full effect not named in the record; active = well fitted activation curve with a large enough effect; inconclusive = small, poorly fitted or top-dose-only effect, or another doubt; inactive = no such curve, though single readings can be large or run the other way; cell line not stated here;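 also: phosphodiesterase inhibitor Ro 20-1724 added with compounds to block cAMP breakdown; potency is read from the fitted curve at half-maximal effect; nearly all actives have a fitted effect of over 60% in size; about a fifth of the inactives were tested at one dose only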
#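 Cells stably selected in G418 were plated at 2000/well, grown 16-24 hr, then given compounds in DMSO with the PDE inhibitor […] (300 uM solution added) for 30 min at 37C; cAMP was read by HTRF.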
# Numbers without * were called inactive; ? = inconclusive; · = no result given; [ ] = another dose, or the depositor's remark.
D2 ag	CtBP-E1A inh	gsp agonist	D2 potentiator	gsp antag	Six1-Eya2 inh	SMILES
0.8	7	17%	-15	8%	11	CCc1ccc(NC(=O)CN2C(=O)CSC2=O)cc1
-0.2	-6	-14%	-4	5%	-6	COc1cc(/C=C/C(=O)OCC(=O)N2CC3(C)CC2CC(C)(C)C3)ccc1O (stereo not given)
-0.1	6	-35%[inhibitor]	-24	-26%	-2	COc1ccc(C(=O)C2CCCN(Cc3cc(Cl)ccc3O)C2)c(OC)c1 (stereo not given)
1.0	4	?	-12	-11%	-3	Cc1ccc(C)c(OCC(=O)NNC(=O)C2CC2)c1
-4.3	-10	9%[15.4 µM]	-9	-11%	3	Nc1nonc1-n1nnc(C(=O)N/N=C/c2ccccc2Br)c1CN1CCCC1
-0.3	2	4%	-2	17%	4	CCc1nnc(NC(=O)CCC(=O)N2CCCC2)s1
-1.0	-10	1%[15.4 µM]	-11	-12%	-29	COc1ccc(-c2csc(NC(=O)c3cccs3)c2C(=O)O)cc1OC
-5.1	9	?	-4	?	-1	COc1ccc2sc(-c3ccc(S(C)(=O)=O)cc3)c(-c3ccc(C(N)=O)cc3)c2c1
-1.2	0	0%	-6	2%	5	CC1CCCC(NC(=O)CSc2nccn2C)C1C (stereo not given)
-1.3	7	-3%	-12	11%	0	Cc1ccc(-c2c(C)sc(=NC(=O)c3ccco3)n2C)cc1
-3.5	·	13%	-4	-8%	25	COCCSc1nnc(NC(=O)C2CC(=O)N(c3ccc(C)cc3)C2)s1 (stereo not given)
1.5	-20	-19%	4	7%	8	CCN(C(=O)CSc1nnc(-c2ccc(OC(F)F)cc2)n1N)C1CCS(=O)(=O)C1 (stereo not given)
-2.8	11	-88%[inhibitor]	-1	14%	5	COc1ccc(Oc2cc(Cl)nc(N)n2)cc1
-0.5	-18	-46%[inhibitor]	-4	5%	3	N#Cc1c(N)nc2c(c1-c1ccncc1)CCCCCC2
1.7	-1	2%	-8	-13%	2	COC(=O)CCC(=O)N1CCc2cc(S(=O)(=O)N3CCc4ccccc43)ccc21
-5.3	6	23%	-1	-15%	-1	N#CC(c1ccc(Cl)cc1)c1ccc(Cl)nn1 (stereo not given)
0.6	7	-29%	-3	4%	4	Cc1ccc2cc(CN(Cc3nnnn3C3CCCC3)C3CCCCC3)c(=O)[nH]c2c1C
-4.3	3	18%	-20	?	-8	CCN(CC)C(=O)c1ccc(/C=C/c2c[nH]c3ccccc23)[n+](C)c1
0.5	0	6%	12	0%	-1	CCOc1ccc(NC(=O)CN(c2ccc(OC)cc2)S(C)(=O)=O)cc1
0.5	-12	-6%	-11	?	-9	Cc1[nH]n(-c2ccc(Cl)cc2)c(=O)c1/C=N/n1c(C)nc2ccccc2c1=O
-0.4	·	?	-3	-17%	-4	CCCCN1C(=O)C(=O)N(CC(=O)Nc2sc(C)c(C)c2C(=O)OC)C1=O
-0.7	3	-86%[inhibitor]	-3	8%	-2	Cc1onc(-c2ccccc2)c1NC(=O)Nc1c(-c2ccccc2)noc1C
3.8	8	2%	-4	-12%	1	CCC1(c2ccccc2)NC(=O)N(CC(=O)Nc2cccc(S(=O)(=O)N3CCCC3)c2)C1=O (stereo not given)
-0.9	0	7%	0	?	10	COc1ccc(C(=O)N2CCCC(c3ccccc3)C2)cc1 (stereo not given)
-5.7	·	12%	-14	5%	-3	Cc1ccc(OCc2ccc(C(=O)NN)o2)cc1C
-0.5	7	-22%	-7	-10%	-1	O=C(O)C1CSCN1S(=O)(=O)c1cccc2nsnc12 (stereo not given)
-0.3	-1	16%	-1	3%	-4	COCCNC(=O)CSc1nnc(CCCN2C(=O)c3cccc4cccc(c34)C2=O)n1-c1ccccc1
-4.4	7	-4%	-2	2%	5	O=C(NCc1ccccc1Cl)c1csc2c1CCCCC2
8.2	·	-22%[15.4 µM]	-5	7%	3	CCOC(=O)C1CCCN(C(=O)c2cccc([N+](=O)[O-])c2C)C1 (stereo not given)
-0.3	-5	?	5	-10%	-5	CCN(C(=O)CN1C(=O)COc2ccc(S(=O)(=O)N3CCCCCC3)cc21)c1cccc(C)c1

# Two entries from above, reformatted:
structure	D2 ag	CtBP-E1A inh	gsp agonist	D2 potentiator	gsp antag	Six1-Eya2 inh
O=C(NCc1ccccc1Cl)c1csc2c1CCCCC2	-4.4	7	-4%	-2	2%	5
CCOC(=O)C1CCCN(C(=O)c2cccc([N+](=O)[O-])c2C)C1 (stereo not given)	8.2	·	-22%[15.4 µM]	-5	7%	3

# Carrying on.
D2 ag	CtBP-E1A inh	gsp agonist	D2 potentiator	gsp antag	Six1-Eya2 inh	SMILES
-5.7	·	-5%	-6	-6%	11	Cn1ncc([N+](=O)[O-])c1C(=O)N/N=C/c1c[nH]c2ccccc12
0.9	-10	1%	13	-13%	-11	CCCCc1ccc(NC(=O)CSC2=C(C#N)C(c3ccco3)C3=C(CCCC3=O)N2)cc1 (stereo not given)
-4.8	-18	?	-6	-13%	-2	COc1ccc(Cl)cc1C(=O)NCc1ccc2c(c1)OCO2
-2.6	·	-29%	4	-4%	9	CCC(=O)Nc1ccc(OCC2CCCO2)cc1 (stereo not given)
0.6	2	-9%	2	-3%	11	O=C(COc1ccc(Cl)cc1Cl)NN1C(=O)/C(=C\c2ccc(Cl)cc2)SC1=S
-3.3	3	-4%	-21	-12%	-2	CCOC(=O)c1oc2cc(O)ccc2c(=O)c1-c1ccccc1OC
-1.9	-2	1%	-16	-17%	-5	COc1ccc(C(=O)OCc2c(-c3cccc(OC)c3)ncc3ccccc23)cc1
-4.1	7	49%[15.4 µM]	-8	8%	11	CCN1C(=O)C2(C(C(=O)c3cc4ccccc4o3)=C(O)C(=O)N2CCCN(C)C)c2ccccc21 (stereo not given)
1.5	4	-67%[inhibitor]	4	·	6	C[C@@H]1CCCCO[C@@H](CN(C)C(=O)Nc2ccc3c(c2)OCO3)[C@@H](C)CN([C@H](C)CO)C(=O)c2cc(N(C)C)ccc2O1
0.4	3	-129%[inhibitor]	-4	14%	-3	O=C(c1ccc(S(=O)(=O)N2CCCC2)cc1)N(c1ccc(F)cc1)C1C=CS(=O)(=O)C1 (stereo not given)
-2.6	12	-68%[inhibitor]	-4	15%	0	CC(=O)Nc1ccc(NC(=O)C(C)OC(=O)c2cccc(S(=O)(=O)N3CCCC3)c2)cc1 (stereo not given)
-8.3	20	-12%[15.4 µM]	0	-16%	11	Cc1ccccc1NC(=O)C(c1ccccc1)C1CCCC1 (stereo not given)
-0.1	-2	-19%	-7	-3%	-14	COc1cccc(NC(=O)CSc2nnc(Cc3cccn3C)n2-c2ccc(F)cc2)c1
-0.7	-1	2%	-5	7%	0	CCn1c2ccccc2c2nnc(SCC(=O)N(C)C3CCS(=O)(=O)C3)nc21 (stereo not given)
-4.5	-25	·	-6	·	11	CN1CCN(c2ccc(CNC[C@H]3O[C@@H](n4cnc5c(=O)[nH]c(N)nc54)[C@H](O)[C@@H]3O)c(F)c2)CC1
2.6	-21	-7%[15.4 µM]	0	4%	?	CC(OC(=O)Cc1c[nH]c2ccccc12)C(=O)Nc1ccccc1[N+](=O)[O-] (stereo not given)
4.4	-8	22%[15.4 µM]	2	4%	2	Cc1nc(OCC(C)C)c2sc3nc4c(cc3c2n1)COC(C)(C)C4
1.0	-10	-30%[inhibitor]	2	-24%	?	O=C1NC(=Nc2ccccc2)S/C1=C\C=C\c1ccco1
10	·	-29%	-7	?	3	Cc1cc(C(=O)NC2CCCc3c2cnn3-c2ccc(C(C)(C)C)cc2)n[nH]1 (stereo not given)
-4.3	15	-36%[inhibitor]	-11	12%	10	CC(C)(C)NC(=O)NC(=O)CSc1nnc(-c2ccccc2F)n1N
-3.8	9	1%[15.4 µM]	-6	10%	-1	Cc1ccnc(NC(=O)Cn2ccc([N+](=O)[O-])n2)c1
-7.1	-11	-16%	-5	10%	1	O=C(NCCc1nnc2ccc(N3CCCCCC3)nn12)c1ccccc1
-0.8	-9	4%	-19	6%	-13	N#Cc1nc(Cc2ccccc2)oc1NCCc1ccccc1
-3.4	17	0%	-12	-16%	1	CS(=O)(=O)N(Cc1ccccc1)c1ccccc1C(=O)Nc1ccccc1C(=O)NCc1ccco1
-3.9	-12	-26%	-4	?	-3	CCOc1ccc(-c2c(C(=O)N/N=C/c3ccc(C)s3)nnn2-c2nonc2N)cc1
-1.4	6	?	-6	-1%	5	O=C(CCCOc1ccccc1)Nc1ccc(S(=O)(=O)N2CCOCC2)cc1
-4.6	-5	15%[15.4 µM]	-4	-8%	4	COc1ccc(Cl)cc1NC(=O)CN(C)C(=O)c1n[nH]c2ccccc12
-0.2	16	-17%	-7	6%	4	O=C1CSC(c2ccccn2)N1c1ccccc1 (stereo not given)
-2.9	-15	9%	2	6%	4	CC1CCCCN1C(=O)COC(=O)c1cc([N+](=O)[O-])ccc1N (stereo not given)
-7.3	5	-2%	11	0%	2	O=C(CSc1nnc(-c2ccccc2NC(=O)c2ccccc2)o1)OC1CCCCC1
-5.7	·	-27%	-44	-3%	9	CCc1ccc(N=C2NC(=O)/C(=C/c3ccc(OCC(=O)O)c(OC)c3)S2)cc1
-2.7	10	11%	3	-4%	0	NC(=O)COc1c(-c2ccccc2)oc2ccccc2c1=O
0.7	-14	·	·	-9%	2	CC[C@@]1(C(=O)OC)N[C@H](CN(C)S(=O)(=O)c2ccccc2)[C@@H]2C(=O)N(Cc3ccccc3)C(=O)[C@@H]21
-1.7	3	?	-3	-5%	-8	Cc1ccc(NC(=O)CCn2c(=O)[nH]c3ccsc3c2=O)cc1F
-4.8	-3	-1%	1	-1%	-3	CC(C)(C)n1nnnc1C(c1ccccn1)N(Cc1ccccc1)Cc1ccc(Cl)cc1 (stereo not given)
-4.4	-1	-1%[15.4 µM]	-3	12%	2	Cc1ccc(NC(=O)CCS(=O)(=O)c2cccc3nonc23)c(Cl)c1
-5.9	-3	18%[15.4 µM]	-1	3%	-1	O=C(NCCc1c[nH]c2ccccc12)C(=O)NCC1CCCO1 (stereo not given)
1.9	·	13%	0	5%	0	CC(=O)Oc1ccc(/C=C(\NC(=O)c2cccc(Br)c2)C(=O)Nc2ccc(C(=O)O)cc2)cc1
-1.9	9	26%	10	-24%	-10	Cc1ccccc1Cn1ccc(NC(=O)c2cnn3c(C(F)(F)F)cc(-c4ccco4)nc23)n1

# Profiles as entered above. Values in the order: D2 ag	CtBP-E1A inh	gsp agonist	D2 potentiator	gsp antag	Six1-Eya2 inh
# `CCC(=O)Nc1ccc(OCC2CCCO2)cc1` (stereo not given) is listed as -2.6	·	-29%	4	-4%	9
# `CCOc1ccc(NC(=O)CN(c2ccc(OC)cc2)S(C)(=O)=O)cc1` is listed as 0.5	0	6%	12	0%	-1
# `N#CC(c1ccc(Cl)cc1)c1ccc(Cl)nn1` (stereo not given) is listed as -5.3	6	23%	-1	-15%	-1
# `CCc1nnc(NC(=O)CCC(=O)N2CCCC2)s1` is listed as -0.3	2	4%	-2	17%	4

# Screening results (PubChem BioAssay)
